PKD1 kinase inh = inhibitors of human PKD1 kinase, biochemical, fluorescence polarization. Serine/threonine-protein kinase D1 (Homo sapiens), Q15139. PKD1 kinase fluorescence polarization assay. inhibition, %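 (about 10 µM by stock and volumes)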. 0.056% of 200,000 active. AID 797, 2007;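 active means inhibition of 50% or more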;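 further: controls were vehicle for no effect and a reference inhibitor for full effect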
GALR2 ag = GALR2 receptor agonists, primary screen, cell-based; activation, %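 (tested at 5 µM)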; AID 803, 2007; Galanin receptor type 2 (Homo sapiens), O43603; GALR2-expressing cells, agonist activation read-out; 0.48% of 140,000 active;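 active means above mean plus 3 SD of all compounds, about 5% in these data, not always enough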;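 further: 0% = vehicle buffer wells and 100% = reference agonist at full effect; tested in CHO reporter cells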
Target sequence (O43603 whole entry, looked up): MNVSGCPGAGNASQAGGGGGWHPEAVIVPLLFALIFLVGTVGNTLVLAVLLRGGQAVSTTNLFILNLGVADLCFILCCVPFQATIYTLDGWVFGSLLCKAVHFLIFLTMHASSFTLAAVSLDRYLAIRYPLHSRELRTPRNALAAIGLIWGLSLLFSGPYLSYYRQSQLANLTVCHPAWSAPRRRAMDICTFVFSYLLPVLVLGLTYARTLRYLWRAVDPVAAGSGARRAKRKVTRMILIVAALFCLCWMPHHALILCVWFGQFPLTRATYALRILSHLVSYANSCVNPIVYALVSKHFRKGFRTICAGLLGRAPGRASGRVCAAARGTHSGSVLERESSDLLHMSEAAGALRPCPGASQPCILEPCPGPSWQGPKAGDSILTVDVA
INS promoter inh = inhibitors of insulin promoter-driven GFP, primary screen, imaging, TRM-6 cells (human fetal islet line), eGFP reporter, cell count. inhibition, % at 2 µM. 0.9% of 130,000 active. reporter expression induced with tamoxifen. AID 1273, 2008;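 active means inhibition above the mean plus 3 SD, with well images judged a real hit on visual review, cut at about 60% in these data, passing the limit was not always enough; inconclusive means inhibition over the cutoff but images rejected on review; inactive means inhibition not above the cutoff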
HSV replic up = enhancers of HSV replication in host cells, fold increase, host cell viability. HSV replication augmentation in cells. maximum fold increase. 0.005% of 220,000 active;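 active means peak rise of 1.5-fold or more in the series; inconclusive means self-fluorescent or not available for retest; tested in PC3 cells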;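 further: first round at 10 µM; read as green reporter fluorescence; hits show the peak of a series up to 25 µM; 1 = signal of infected wells without compound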
RGS16-Gao = modulators of RGS16 binding to Galphao, primary screen, biochemical, human proteins, multiplexed bead flow cytometry; bead-based flow cytometry RGS16-Galphao binding, fluorescence; actives lie on both sides; binding response (% of control), % at 10 µM; 0.38% of 220,000 active; AID 1441, 2008;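 active means below 25% or above 175%, edge rows of some plates excepted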;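 further: Galphao activated by GDP with aluminum fluoride before binding; 100% = wells without compound and 0% = beads without RGS; some results beyond the cut were filed as inactive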
Target sequence (O15492 whole entry, looked up): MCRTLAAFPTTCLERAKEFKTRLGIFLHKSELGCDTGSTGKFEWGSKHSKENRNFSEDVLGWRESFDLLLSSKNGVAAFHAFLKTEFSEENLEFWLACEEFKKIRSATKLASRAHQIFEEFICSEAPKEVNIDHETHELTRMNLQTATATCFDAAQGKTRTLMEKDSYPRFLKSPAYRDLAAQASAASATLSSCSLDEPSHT
Target sequence (P09471 whole entry, looked up): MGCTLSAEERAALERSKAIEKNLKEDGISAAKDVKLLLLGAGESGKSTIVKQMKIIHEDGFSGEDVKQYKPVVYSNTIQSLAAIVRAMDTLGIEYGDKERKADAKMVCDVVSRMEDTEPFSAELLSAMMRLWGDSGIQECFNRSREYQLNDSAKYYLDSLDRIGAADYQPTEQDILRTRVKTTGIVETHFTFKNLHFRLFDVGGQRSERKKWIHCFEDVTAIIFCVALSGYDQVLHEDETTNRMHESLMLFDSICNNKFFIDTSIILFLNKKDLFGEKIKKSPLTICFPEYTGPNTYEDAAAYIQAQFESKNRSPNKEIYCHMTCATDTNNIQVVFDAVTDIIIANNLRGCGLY
INS promoter inh cell count = recorded beside INS promoter inh, whose call it bears; normalized cell count, %; measured here: cell count, toxicity; reference of the scale not given here;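 cells exposed to compound for 48 h; stained nuclei by imaging scaled within each plate; lower means fewer cells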
HSV replic up primary fold = recorded beside HSV replic up, whose call it bears; fold increase; compound at 10 µM; measured here: primary screen fold increase 10 uM; tested in PC3 cells;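 GFP signal in the first replicate; 1 = infected wells without compound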
Numbers without * were called inactive; i = inactive; ? = inconclusive; . = not tested or not shown.

SMILES	PKD1 kinase inh	GALR2 ag	INS promoter inh	INS promoter inh cell count	HSV replic up	HSV replic up primary fold	RGS16-Gao
Cc1nnsc1SCC(=O)O	4	-1.0	7	122	i	0.89	95
Cn1c(=O)c2c(SCC(=O)NCCc3ccccc3)nc(C3CC3)nc2n(C)c1=O	.	.	.	.	i	0.96	102
COC(=O)c1ccccc1NC(=O)CN1CCC(C(=O)c2ccc3c(c2)OCCO3)CC1	-11	-0.9	.	.	i	0.66	103
C=CC(=C)CC(NC)c1ccccc1 (stereo unspecified)	1	-2.3	-18	127	i	0.99	102
COc1cc(/C=C(\C#N)c2nc3ccccc3[nH]2)cc(Br)c1OCc1ccccc1	-13	4.6	.	.	i	0.99	103
Nc1c(Cl)ncnc1NCCc1ccc(O)cc1	.	.	.	.	i	0.99	107
N#CC(Cc1ccccc1OC(F)F)c1nc2ccccc2[nH]1 (stereo unspecified)	-4	0.1	.	.	i	0.84	106
Cc1cccc(C(=O)O/N=C(\N)Cc2ccc([N+](=O)[O-])cc2)c1	2	-2.6	21	130	i	0.93	100
Cc1ccc(-c2cc(C#N)c(=O)n(Cc3c(Cl)cccc3Cl)c2)cc1	-1	-0.3	0	98	i	1	102
COc1ccc(-c2cc(=O)n(-c3ccc([N+](=O)[O-])cc3)[nH]2)cc1	-6	-1.9	.	.	i	0.88	96
COC(=O)Cc1c(C)nc2nc(NCc3c(F)cccc3Cl)[nH]n2c1=O	7	-1.3	-38	117	i	1.1	103
O=C(NC1CCN(Cc2ccccc2)CC1)C1CCN(S(=O)(=O)c2cccc3nsnc23)CC1	4	-0.8	-83	115	i	0.97	107
COCCNC(=O)c1ccc(N2CCCCC2)c(NS(=O)(=O)c2ccc(C)cc2)c1	11	-2.6	.	.	i	0.96	101
COc1ccc(CN(C)C(C)C(=O)Nc2ccc([N+](=O)[O-])cc2Cl)cc1OC (stereo unspecified)	-4	-1.2	.	.	i	0.97	102
CCC(=O)NC(=S)Nc1ccc(NC(=O)c2ccc(Br)o2)cc1	-2	.	.	.	i	1	97
CCOC(=O)c1nc(C)sc1-c1ccnn1S(=O)(=O)c1ccccc1C(F)(F)F	.	.	.	.	i	0.94	109
NNc1ccc(Cc2ccc(Cl)cc2Cl)nn1	0	.	-67	90	i	0.89	96
C#Cc1ccc([C@H]2C=C(C(=O)NCc3ccccc3)O[C@@H](OCC)[C@@H]2CCCO)cc1	-5	.	.	.	i	0.76	100
COc1ccc(OCCCc2c(C)n[nH]c2C)cc1	-1	-1.6	.	.	.	.	129
N#Cc1c(Nc2ccccc2)c(/C=N/N=C/c2ccccc2)c[nH]c1=O	3	-0.7	16	104	i	0.94	99
COc1ccc(S(=O)(=O)N2CCCC2C(=O)Nn2cnnc2)cc1 (stereo unspecified)	-4	-1.7	.	.	i	1	81
N=c1sccn1CC(=O)Nc1cc(S(=O)(=O)N2CCCCC2)ccc1Cl	.	.	.	.	i	0.96	100
COc1ccc(/C(O)=C2/C(=O)C(=O)N(CCN(C)C)C2c2ccccc2)cc1Cl (stereo unspecified)	1	-0.9	0	104	i	0.96	104
O=C(c1ccccc1)c1ccc2c(c1)OCCOCCOCCOCCO2	.	.	.	.	i	0.92	88
Cc1ccc2oc(=O)n(CCOc3ccccc3Cl)c2c1	-7	-0.5	.	.	i	0.91	106
SMILES	PKD1 kinase inh	GALR2 ag	INS promoter inh	INS promoter inh cell count	HSV replic up	HSV replic up primary fold	RGS16-Gao
COc1ccc([N+](=O)[O-])cc1NC(=O)C(C)Sc1ccccc1 (stereo unspecified)	-3	-1.5	-55	132	i	0.87	106
O=C(NC1CCCC1)C(c1ccc(O)cc1)N(CC1CCCO1)C(=O)C1COc2ccccc2O1 (stereo unspecified)	-8	-1.7	-24	94	i	1.1	106
CCC(=O)N(CC)c1nc(-c2ccc(OC)cc2)cs1	-6	-1.2	.	.	i	0.74	98
CS(=O)(=O)N1CCN(c2ccc([N+](=O)[O-])c(N3CCOCC3)c2)CC1	-3	-1.4	.	.	.	.	106
CSc1nnc(NC(=O)CCc2ccccc2)s1	-4	-2.9	-11	76	i	0.91	100
CCOC(=O)CSc1ccc2nnc(CCNS(=O)(=O)c3ccccc3)n2n1	-7	.	.	.	i	1.1	95
CS(=O)(=O)N(Cc1ccc(Cl)cc1)c1ccc(C(=O)N/N=C/c2cc3ccccc3nc2Cl)cc1	-8	-1.5	.	.	i	0.77	103
O=C(Nc1csc([N+](=O)[O-])c1)Nc1c(Cl)cccc1Cl	.	.	.	.	i	1.1	102
COc1ccc(OCC(O)Cn2c(Nc3ccccc3)nc3c2c(=O)n(C)c(=O)n3C)cc1 (stereo unspecified)	3	-1.0	.	.	i	0.98	103
O=C(NCc1ccco1)c1c[nH]c2ccc(S(=O)(=O)N3CCOCC3)cc2c1=O	-3	-1.4	-58	77	i	0.93	104
COc1cc2c(cc1NC(=O)c1ccccc1F)CCCC2	-16	0.1	0	40	i	0.98	51
COC(=O)c1sc(S(=O)(=O)N2CCC(C(N)=O)CC2)c(C(=O)OC)c1C	-5	-1.0	13	63	i	0.85	101
Cc1cc2c(c(Sc3ccccc3)n1)C(=O)OC2	-6	-1.9	.	.	i	1.1	97
C=CCn1c(SCC(=O)Nc2cc(C)on2)nc2sc(C)c(C)c2c1=O	-4	0.8	0	133	.	.	100
Cc1ccc(C(=O)/C=C/Nc2ccccc2C(N)=O)o1	-6	-1.9	68	114	i	1.1	95
C[C@@H](O)C1NC(=O)[C@H](CCCCN)NC(=O)c2cc([N+](=O)[O-])cc(I)c2NCCC[C@@H](C(N)=O)NC1=O (stereo partly specified)	0	0.0	10	110	i	0.97	56
COc1ccc(C)c(-n2c(N)cc(=O)n(Cc3ccccc3)c2=O)c1	.	.	.	.	i	1.1	98
COc1cc(C(=O)Nc2nc(OC)c(-c3ccccc3)c(OC)n2)cc(OC)c1OC	-5	-0.8	-23	62	i	0.93	100
O=C(NCc1ccco1)C1CCCCN1S(=O)(=O)c1ccc(F)cc1 (stereo unspecified)	7	-1.8	.	.	i	0.97	98
CC1=CC(=O)C=CC1(C)C(Cl)Cl (stereo unspecified)	-7	-1.4	56	77	i	0.84	103
COc1ccc(OCC(=O)N/N=C2\CCCc3ccccc32)cc1	4	-0.4	.	.	i	1.1	98
O=S1(=O)[C@H]2CC3O[C@]2(C[C@@H]3c2ccc(F)cc2)CN1Cc1ccc(Cl)cc1	.	.	.	.	i	0.93	92
Cc1ccccc1N=Cc1cc2c(cc1O)OC(N)=C(C#N)C2c1ccccc1 (stereo unspecified)	-5	-0.4	.	.	?	.	68
CCc1ccccc1N(C)C(=O)CCc1nc(-c2ccc(C)cc2)no1	-6	-1.4	0	64	i	1	102
Cn1c(-c2ccc3c(c2)OCO3)cnc1NCc1cccc(O)c1	-2	.	.	.	i	1.1	107
SMILES	PKD1 kinase inh	GALR2 ag	INS promoter inh	INS promoter inh cell count	HSV replic up	HSV replic up primary fold	RGS16-Gao
NS(=O)(=O)c1ccc(N2C(=O)C3CC=CCC3C2=O)cc1 (stereo unspecified)	2	.	-13	67	i	1	98
CN(C)CCNC(=S)Nc1ccc(-c2nc3ccccc3[nH]2)cc1	-4	.	36	141	i	0.98	100
CCCNC(=O)COC(=O)/C=C/c1ccc2c(c1)OCO2	-6	0.2	-7	109	i	0.9	106
CCN(CC)S(=O)(=O)c1cccc(NC(=O)COC(=O)CNC(=O)c2cccc(F)c2)c1	.	.	.	.	i	0.94	101
C#CCSc1nc(-c2ccccc2)cc(C(F)(F)F)c1C#N	-1	-0.8	14	91	i	0.98	96
CC(C)c1nnc(NC(=O)c2ccc3c(c2)OCO3)s1	-1	.	-63	57	i	1.1	94
O=C(O)CCC(=O)NC(c1ccccc1)c1ccccc1	3	.	.	.	i	0.84	109
O=C(CCc1ccc(S(=O)(=O)N2CCOCC2)cc1)NCCCN1CCCC1=O	-4	-0.3	-38	69	i	0.96	89
CCOc1ccc(NC(=O)C2CCC(N3C(=O)C4CC=CCC4C3=O)CC2)cc1 (stereo unspecified)	5	-0.4	.	.	i	0.92	101
CCCc1nc2ccccc2c(=O)n1/N=C/c1ccc(O)c(O)c1	4	-1.1	-21	39	i	1	93
O=C(O)c1ccc(Cn2cc(Cl)cn2)cc1	-11	0.0	.	.	i	0.95	118
O=C(c1cc([N+](=O)[O-])ccc1N1CCCCC1)N1CCCC1	-4	0.0	45	70	i	1	90
O=C1CSC(c2cccc([N+](=O)[O-])c2)N1C1CC2CCC1C2 (stereo unspecified)	.	.	.	.	i	0.98	96
COc1ccc(S(=O)(=O)NCCOc2cccc3cccnc23)cc1OC	1	.	.	.	i	1	100
Cc1nc(Nc2ccc(Cl)cc2)c2nnn(Cc3ccccc3)c2n1	-3	.	.	.	i	0.78	102
Cc1nc(N2CCN(Cc3ccccc3)CC2)nc2c1CCC2	4	.	-56	105	i	0.97	102
CCOc1ccc(-c2n[nH]c(C(=O)NN)c2C)cc1	2	1.1	19	90	i	0.89	99
CCS(=O)(=O)n1nc(-c2ccc(C)cc2)nc1N	3	-2.0	-73	25	i	1.1	100
COC(=O)c1[nH]c2ccccc2c1NC(=O)C(C)N1CCOCC1 (stereo unspecified)	.	.	.	.	i	0.99	102
CC(=O)Nc1cccc(NC(=O)CSc2nnnn2Cc2ccccc2)c1	7	-3.0	.	.	i	1	104
Cc1c(C=O)c2ccccn2c1C(=O)c1ccc(Cl)c([N+](=O)[O-])c1	-6	.	17	125	i	0.81	105
CCOC(=O)c1nn(-c2ccc3c(c2)CCN3C(C)=O)cc1O	-1	-1.0	.	.	i	0.94	104
Cn1cc(CN(CCO)Cc2cccs2)c(-c2ccccc2F)n1	8	.	.	.	i	0.91	98
CN(C)CCNC(=O)c1ccc(CS(=O)(=O)c2ccc(Br)cc2)o1	-14	-2.4	.	.	i	1.1	.
COc1ccc(NC(=O)COc2ncnc3ccccc23)cc1S(=O)(=O)N1CCOCC1	1	.	.	.	i	1.1	103

An excerpt from the list above, for reference:
SMILES	PKD1 kinase inh	GALR2 ag	INS promoter inh	INS promoter inh cell count	HSV replic up	HSV replic up primary fold	RGS16-Gao
CC(=O)Nc1cccc(NC(=O)CSc2nnnn2Cc2ccccc2)c1	7	-3.0	.	.	i	1	104
Cc1c(C=O)c2ccccn2c1C(=O)c1ccc(Cl)c([N+](=O)[O-])c1	-6	.	17	125	i	0.81	105
CCOC(=O)c1nn(-c2ccc3c(c2)CCN3C(C)=O)cc1O	-1	-1.0	.	.	i	0.94	104
Cn1cc(CN(CCO)Cc2cccs2)c(-c2ccccc2F)n1	8	.	.	.	i	0.91	98
CN(C)CCNC(=O)c1ccc(CS(=O)(=O)c2ccc(Br)cc2)o1	-14	-2.4	.	.	i	1.1	.
COc1ccc(NC(=O)COc2ncnc3ccccc23)cc1S(=O)(=O)N1CCOCC1	1	.	.	.	i	1.1	103

Results in RGS16-Gao, GALR2 ag and INS promoter inh, for two of the compounds above:
structure	RGS16-Gao	GALR2 ag	INS promoter inh
Cc1nc(Nc2ccc(Cl)cc2)c2nnn(Cc3ccccc3)c2n1	102	.	.
NS(=O)(=O)c1ccc(N2C(=O)C3CC=CCC3C2=O)cc1 (stereo unspecified)	98	.	-13

New compounds follow.
SMILES	PKD1 kinase inh	GALR2 ag	INS promoter inh	INS promoter inh cell count	HSV replic up	HSV replic up primary fold	RGS16-Gao
Cn1c(=O)c(=O)n(C)c2cc(S(=O)(=O)N3CCC(N4CCCCC4)CC3)ccc21	-7	-0.7	25	81	i	0.83	.
C=CCOc1ccc(CN(C)Cc2nc3cc(C(F)(F)F)ccc3c(=O)[nH]2)cc1	1	.	-28	203	i	1	100
CCOc1ccc(-n2nnc3c(=O)n(CC(=O)Nc4cc(C)on4)cnc32)cc1	.	.	.	.	i	0.89	100
O=C(c1cc(C2CC2)on1)N1CCN(c2ccccc2)CC1	-5	-2.5	.	.	i	0.91	92
CCNc1nn2ccccc2c1/C=C(\C#N)C(=O)OCC	.	.	.	.	i	0.93	121
COc1cc(NC(=S)NN2CCN(C)CC2)cc(OC)c1	-4	3.4	36	93	i	1	108
O=C(NCCO)c1c(O)c2cccc3c2n(c1=O)CC3	-9	1.0	29	103	i	0.98	106
COC(=O)c1ccc(C23CC4(C2)[C@H](CN(CC2CCCCC2)[C@@H]4c2ccccc2)C3c2ccc(Cl)nc2)cc1 (stereo partly specified)	.	.	.	.	i	0.91	100
COc1cc(C(=S)N(C)C)ccc1O	0	-0.8	-93	130	i	0.84	102
O=C(CSc1nc2[nH]ncc2c(=O)n1-c1ccc(Cl)c(Cl)c1)NCc1ccccc1Cl	-2	.	-41	78	i	0.72	106
COCCn1cc(C(=O)N2CCCC(C)C2)c2c3ccccc3n(C)c2c1=O (stereo unspecified)	-2	-1.6	.	.	i	1.1	98

Bioassay records as filed in PubChem BioAssay.
